Bioassay records (PubChem)
PKD1 inh: inhibitors of human PKD1 kinase, biochemical, fluorescence polarization. actives 0.056% (n = 200,000). PKD1 kinase fluorescence polarization assay. inhibition, %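 (about 10 µM by stock and volumes)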;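 active = inhibition of 50% or more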;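 note: controls were vehicle for no effect and a reference inhibitor for full effect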
Target sequence (Q15139 whole entry, looked up): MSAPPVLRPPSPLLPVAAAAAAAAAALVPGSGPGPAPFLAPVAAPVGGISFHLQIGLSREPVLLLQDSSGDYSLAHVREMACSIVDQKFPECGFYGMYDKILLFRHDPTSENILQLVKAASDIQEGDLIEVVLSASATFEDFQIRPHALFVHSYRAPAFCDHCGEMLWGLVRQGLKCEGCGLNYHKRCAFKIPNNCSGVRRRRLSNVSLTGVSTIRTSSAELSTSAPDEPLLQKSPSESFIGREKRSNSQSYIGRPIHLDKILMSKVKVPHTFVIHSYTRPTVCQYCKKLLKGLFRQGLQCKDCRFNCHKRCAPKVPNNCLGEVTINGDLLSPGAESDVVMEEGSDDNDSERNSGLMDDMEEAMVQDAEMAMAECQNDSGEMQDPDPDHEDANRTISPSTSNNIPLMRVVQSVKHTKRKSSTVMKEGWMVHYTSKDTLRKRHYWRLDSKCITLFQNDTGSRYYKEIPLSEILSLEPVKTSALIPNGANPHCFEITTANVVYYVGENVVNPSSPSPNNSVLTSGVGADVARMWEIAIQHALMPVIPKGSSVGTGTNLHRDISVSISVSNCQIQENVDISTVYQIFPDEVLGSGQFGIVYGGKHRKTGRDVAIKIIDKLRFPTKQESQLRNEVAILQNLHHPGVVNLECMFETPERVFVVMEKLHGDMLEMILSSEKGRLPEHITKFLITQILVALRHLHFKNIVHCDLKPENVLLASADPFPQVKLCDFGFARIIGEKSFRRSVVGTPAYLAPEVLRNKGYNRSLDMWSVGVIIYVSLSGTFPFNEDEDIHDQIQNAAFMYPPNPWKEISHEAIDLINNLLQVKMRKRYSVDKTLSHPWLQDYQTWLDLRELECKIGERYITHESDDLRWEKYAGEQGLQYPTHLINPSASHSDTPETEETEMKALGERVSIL
HSV replic up: enhancers of HSV replication in host cells, fold increase, host cell viability | HSV replication augmentation in cells | maximum fold increase | actives 0.005% (n = 220,000);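 active = peak rise of 1.5-fold or more in the series; tested in PC3 cells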;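 note: first round at 10 µM; read as green reporter fluorescence; hits show the peak of a series up to 25 µM; 1 = signal of infected wells without compound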
RGS16-Gao: modulators of RGS16 binding to Galphao, primary screen, biochemical, human proteins, multiplexed bead flow cytometry; binding response (% of control), % at 10 µM; bead-based flow cytometry RGS16-Galphao binding, fluorescence; actives lie on both sides; actives 0.38% (n = 220,000); AID 1441, 2008;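 active = below 25% or above 175%, edge rows of some plates excepted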;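 note: Galphao activated by GDP with aluminum fluoride before binding; 100% = wells without compound and 0% = beads without RGS; some results beyond the cut were filed as inactive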
GALR2 ag: GALR2 receptor agonists, primary screen, cell-based; actives 0.48% (n = 140,000); Galanin receptor type 2 (Homo sapiens), O43603; GALR2-expressing cells, agonist activation read-out; AID 803, 2007; activation, %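 (tested at 5 µM)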;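 active = above mean plus 3 SD of all compounds, about 5% in these data, not always enough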;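 note: 0% = vehicle buffer wells and 100% = reference agonist at full effect; tested in CHO reporter cells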
Insulin prom inh: inhibitors of insulin promoter-driven GFP, primary screen, imaging, TRM-6 cells (human fetal islet line), eGFP reporter, cell count; reporter expression induced with tamoxifen; inhibition, % at 2 µM; actives 0.9% (n = 130,000);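 active = inhibition above the mean plus 3 SD, with well images judged a real hit on visual review, cut at about 60% in these data, passing the limit was not always enough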
Insulin prom inh cell count: second read-out of Insulin prom inh, no call of its own (marks repeat the call); normalized cell count, %; measured here: cell count, toxicity; reference of the scale not given here;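 cells exposed to compound for 48 h; stained nuclei by imaging scaled within each plate; lower means fewer cells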
HSV replic up primary fold: further read-out of HSV replic up, marked with its call; fold increase; compound at 10 µM; measured here: primary screen fold increase 10 uM; tested in PC3 cells;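 GFP signal in the first replicate; 1 = infected wells without compound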
* = called active by the depositor; i = inactive; · = no result given.

SMILES	PKD1 inh	HSV replic up	HSV replic up primary fold	RGS16-Gao	GALR2 ag	Insulin prom inh	Insulin prom inh cell count
Cc1ccsc1/C=N\NC(=O)CCc1c(C)n[nH]c1C	-5	i	1	100	·	·	·
BrC(/C=C\c1ccccc1)=N/Nc1nc(N2CCOCC2)nc(N2CCOCC2)n1	-2	i	0.84	99	·	·	·
CSc1nc(C)c2c(n1)N(c1ccc(C(C)C)cc1)CC2	7	·	·	101	-1.2	·	·
C/C(=N\Nc1ccc(S(=O)(=O)Nc2ccccc2)cc1[N+](=O)[O-])c1ccncc1	-3	i	0.97	87	·	·	·
CC(=O)c1cccc(NC(=S)NCCCCc2ccccc2)c1	-1	i	1	101	-0.2	·	·
COc1ccccc1N1C(=O)CC(Sc2n[nH]c(-c3cccc(C)c3)n2)C1=O (stereo not drawn)	-3	i	0.96	107	-0.2	20	57
CCOC(=O)C1CCN(C(C)=C2C(=O)c3ccccc3C2=O)CC1	-2	i	1	95	-0.6	25	72
COc1ccc(-c2cccc(C(=O)Nc3ccc(OC)c(OC)c3)c2)cc1	-10	i	1.1	103	-4.7	4	101
C=CCOc1ccc(CNc2ccc3[nH]c(=O)[nH]c3c2)cc1OC	-8	i	1.1	101	·	·	·
O=C(N/C(=C/c1ccccc1)C(=O)N1CCCCCC1)c1ccccc1	1	i	0.96	93	·	-44	131
CCN(CC)S(=O)(=O)c1ccc(-c2cc(C(=O)OC)sc2C(F)(F)F)cc1	·	i	1.1	104	·	·	·
CCC(C)N(C(=O)COC(=O)Cc1n[nH]c(=O)c2ccccc12)C1CCS(=O)(=O)C1 (stereo not drawn)	1	i	1.1	97	0.1	·	·
CC(O)CNCCCOc1ccccc1OCc1ccccc1 (stereo not drawn)	-5	i	0.99	101	·	·	·
Cc1c(-c2ncn[nH]2)sc(C#N)c1-c1ccccc1	0	i	0.76	107	·	0	135
CCSc1ccccc1C(=O)NC1CCCCC1	2	i	0.93	99	·	·	·
CCc1ccc2[nH]c(=O)c(CN(Cc3ccc4c(c3)OCO4)C(=O)c3ccco3)cc2c1	2	i	1.1	103	-0.9	-16	116
CCOC(=O)c1ccc(S(=O)(=O)N2CCN(S(=O)(=O)CC)CC2)cc1	8	i	1	71	-1.0	-35	53
O=C(NCc1ccco1)c1ccc(COc2cc(Cl)ccc2Cl)cc1	-7	i	1.1	101	-0.7	·	·
COCCCNC(=O)CCS(=O)(=O)Cc1ccc(C)cc1	-9	i	1.1	107	-0.7	16	92
C#CCN1C(=O)C(O)(CC(=O)c2cccc(OC)c2)c2ccccc21 (stereo not drawn)	-6	i	1.1	42	-0.6	16	83
O=C(c1ccccc1F)N1CCN(c2cccc(C(F)(F)F)c2)CC1	-17	i	0.84	99	-0.7	·	·
CCOC(=O)C1=C(CSc2nccn2C)NC(=O)NC1c1ccc2c(c1)OCO2 (stereo not drawn)	1	i	1	103	-2.5	-18	74
CCC1Oc2ccc(C)cc2N(CC(=O)NCc2cc(OC)ccc2OC)C1=O (stereo not drawn)	-18	i	0.85	101	-0.4	12	140
Cc1cccc(C)c1Nc1nnc(SCc2nc3ccccc3s2)s1	11	i	1.2	101	-0.5	·	·
CCCCOc1ccc(C(O)C(CN2CCCCC2)c2ccccc2)cc1 (stereo not drawn)	-2	i	0.92	98	·	-56	120
CCOCCCn1c(C)nc2c[n+](CC(=O)c3ccc4ccccc4c3)cc(Br)c21	·	i	0.97	96	·	·	·
CCOC(=O)C1CCCN(CC(=O)Nc2c(C(=O)OC)[nH]c3ccccc23)C1 (stereo not drawn)	-4	i	0.91	106	-1.7	24	94
CCCCNC(=O)c1nnn(-c2ccccc2)c1N	-2	i	0.82	87	-0.7	0	118
N#Cc1cc2ccccc2nc1SCC(=O)Nc1ccccc1N1CCOCC1	-14	·	·	110	-2.6	-18	116
C=CCn1c(SCC(O)Cn2c3ccccc3c3ccccc32)nnc1-c1ccco1 (stereo not drawn)	2	i	1	100	1.3	·	·
COc1cc(C(=O)NCC(c2cccnc2)N2CCN(C)CC2)cc(OC)c1OC (stereo not drawn)	5	i	1	97	-4.8	-79	44
Cc1cc(C(=O)N/N=C/c2cccs2)n[nH]1	-2	i	0.99	98	·	·	·
CN=Cc1nc(-c2ccccc2)oc1O	-10	i	1.1	192	-1.1	27	94
Cc1ccc2c(c1)oc(=O)n2CC(=O)c1ccccc1	·	i	1	101	·	·	·
O=C(Cn1cc(C(F)(F)F)ccc1=O)N/N=C/c1ccc(F)cc1	-4	i	0.96	102	·	36	94
O=[N+]([O-])c1ccc(Cl)c(C2Nc3cccc4cccc(c34)N2)c1	3	i	0.52	102	-4.7	·	·
O=S1(=O)CC(N2CCOCC2)c2ccccc21 (stereo not drawn)	-4	i	0.98	104	-0.7	23	101
CC(=O)NS(=O)(=O)c1ccc(N=c2ssc3c2-c2ccc(C)cc2NC3(C)C)cc1	1	i	0.95	103	-2.1	14	168
Cc1cc(C)c(NC(=O)C2CC(=O)N(Cc3ccccc3)C2)c(C)c1 (stereo not drawn)	-2	i	1	110	·	-67	78
COc1ccc(S(=O)(=O)Nc2cc([N+](=O)[O-])ccc2OC)cc1	-5	i	0.81	107	-0.4	-8	141
Cc1ccc(S(=O)(=O)N2CCOCC2)cc1C(=O)NCc1ccc2c(c1)OCO2	-3	i	0.99	105	-0.5	10	87
COc1ccccc1N(C)S(=O)(=O)c1ccc(C(=O)N(CC(N)=O)C(C)C)cc1	0	i	0.85	102	-1.7	31	112
O=C(CCN1C(=O)/C(=C\c2ccccc2Cl)SC1=S)N1CCN(c2ccccc2)CC1	1	i	1.1	101	-1.5	·	·
C/C(=N/NC(=O)CSc1ccccn1)c1ccc([N+](=O)[O-])cc1	-13	i	0.88	108	0.7	17	75
CC(=O)c1c(C)n(CCO)c2ccc(O)cc12	0	i	1.4	96	-0.6	6	80
COc1ccc(S(=O)(=O)N2CN(CCc3ccc(OC)c(OC)c3)c3nc4ccccc4nc32)cc1	-2	i	1.3	105	-0.1	·	·
NNc1ncnc2c1cnn2-c1ccccc1	-4	i	0.93	127	-0.6	43	128
CCOc1cc(C(=O)NCCN2CCOCC2)cc(OCC)c1OCC	-11	i	1	103	-0.4	-3	59
O=C(O)c1sc2cc(C(F)(F)F)cnc2c1-c1ccccn1	-4	i	1	107	·	-9	154
Cc1ccc(NC(=O)CO/N=C(\N)c2nonc2N)cc1C	-7	i	0.98	25*	1.3	-53	79
Cc1cc2nc(C3CCN(Cc4nnnn4Cc4ccccc4)CC3)[nH]c2cc1C	-10	i	1	96	-0.3	30	69
CCSc1nnc2c(n1)OC(c1ccc(C(=O)O)cc1)N(C(C)=O)c1ccccc1-2 (stereo not drawn)	-6	i	1.3	74	-3.1	·	·
c1coc(CNc2nc3ccccc3n2CCN2CCOCC2)c1	-10	i	0.8	106	-2.2	20	43
CCCCNC(=O)C1CC(c2cccc([N+](=O)[O-])c2)=NO1 (stereo not drawn)	-4	i	0.86	104	-1.5	·	·
CCn1c(C)nc2cc(C(=O)N/N=C(\C)c3ccccc3O)ccc21	-5	i	1	95	·	·	·
COC(=O)c1ccccc1NC(=O)COC(=O)C1CCCCC1	·	i	1	101	·	·	·
Cc1nn(-c2ccccc2)c(C)c1C(=O)Oc1ccccc1	·	i	1.1	102	·	·	·
O=S(=O)(c1ccccc1)N1N=C(c2cccs2)CC1c1ccc(Br)cc1 (stereo not drawn)	4	i	1.1	98	-1.3	30	80
Cc1nn(Cc2ccccc2)c(Cl)c1/C=C/C(=O)OCC(=O)N1CCCC1=O	0	i	0.86	99	·	·	·
CCCCN(CC)c1nc(-c2ccncc2)nc2ccccc12	-8	i	0.89	103	-1.6	-17	114
(next part)
SMILES	PKD1 inh	HSV replic up	HSV replic up primary fold	RGS16-Gao	GALR2 ag	Insulin prom inh	Insulin prom inh cell count
CCOc1cc(CNC2CCCC2)ccc1OCc1ccccc1Cl	2	i	0.77	102	·	·	·
COc1ccc(-n2nc(C(=O)NCC(=O)N3CCN(Cc4ccc5c(c4)OCO5)CC3)c3ccccc3c2=O)cc1OC	0	i	0.96	103	·	·	·
CC1(C)Cc2c(ccc3ccccc23)/C(=C/C(=O)N2CCCCC2)N1	-4	i	0.87	104	0.4	0	72
O=C(CSCCNS(=O)(=O)c1ccccc1)Nc1ccccc1	-19	i	0.89	108	-1.5	-10	116
Cc1noc(NS(=O)(=O)c2ccc(NC(=O)CSc3n[nH]c(-c4ccccc4)n3)cc2)c1C	0	i	1	103	-1.7	-155	79
COc1ccccc1/C=C(/C(=O)OCC(=O)Nc1ccccc1C)c1ccccc1	-1	i	1.1	117	0.5	·	·
CCOC(=O)C(CC)Sc1ccc2nnc(-c3cccnc3)n2n1 (stereo not drawn)	-5	i	0.92	95	·	-7	130
Nc1n[nH]c(S(=O)(=O)CCCc2ccccc2)n1	15	i	0.9	96	-0.1	44	71
CCC(=O)n1nc(NCc2ccc(OC)c(OC)c2)nc1NCc1ccc(OC)c(OC)c1	-6	i	0.88	98	-2.0	69	85
O=C(Nc1ccc(Oc2ccccc2)cc1)C1CCCO1 (stereo not drawn)	14	i	0.8	89	-0.4	-7	177
Cn1c(NC(=O)CCC2CCCCC2)cc(=O)n(C)c1=O	-16	i	0.89	113	-2.1	·	·
CC(C)c1nnc(NC(=O)c2c(O)c3cccc4c3n(c2=O)CCC4)s1	-4	i	1	102	-3.2	·	·
O=C(CCc1n[nH]c(=O)[nH]c1=O)N/N=C/c1ccco1	-6	i	0.88	112	·	-27	99
COc1ccc(C2c3c(oc4ccccc4c3=O)C(=O)N2CC2CCCO2)cc1 (stereo not drawn)	-3	i	1.1	107	-0.9	·	·
COc1ccc(/C(C)=N/NC(=S)NCCc2ccccc2)cc1	0	i	0.84	97	·	·	·

Some of the entries so far, with bars between the fields:
Structure | PKD1 inh | HSV replic up | HSV replic up primary fold | RGS16-Gao | GALR2 ag | Insulin prom inh | Insulin prom inh cell count
Cn1c(NC(=O)CCC2CCCCC2)cc(=O)n(C)c1=O | -16 | i | 0.89 | 113 | -2.1 | · | ·
CCC(=O)n1nc(NCc2ccc(OC)c(OC)c2)nc1NCc1ccc(OC)c(OC)c1 | -6 | i | 0.88 | 98 | -2.0 | 69 | 85
O=C(CCc1n[nH]c(=O)[nH]c1=O)N/N=C/c1ccco1 | -6 | i | 0.88 | 112 | · | -27 | 99

Continuation.
SMILES	PKD1 inh	HSV replic up	HSV replic up primary fold	RGS16-Gao	GALR2 ag	Insulin prom inh	Insulin prom inh cell count
CC(=O)C(Cc1ccccc1)NC(=O)CCl (stereo not drawn)	-3	i	0.96	104	·	0	71
CCCc1[nH]n(-c2ccc([N+](=O)[O-])cc2)c(=O)c1C=NCCN1CCNCC1	1	i	0.99	112	·	·	·
COCCCn1c(C)c(C(C)=O)cc(NC(=O)c2ccccc2)c1=O	-4	i	1	100	·	·	·
CCc1cccc(C)c1NC(=O)C1CCCO1 (stereo not drawn)	-3	i	0.99	65	-3.0	18	100

Structural class: those above containing an NH in an aromatic ring.
SMILES	PKD1 inh	HSV replic up	HSV replic up primary fold	RGS16-Gao	GALR2 ag	Insulin prom inh	Insulin prom inh cell count
Cc1ccsc1/C=N\NC(=O)CCc1c(C)n[nH]c1C	-5	i	1	100	·	·	·
COc1ccccc1N1C(=O)CC(Sc2n[nH]c(-c3cccc(C)c3)n2)C1=O (stereo not drawn)	-3	i	0.96	107	-0.2	20	57
C=CCOc1ccc(CNc2ccc3[nH]c(=O)[nH]c3c2)cc1OC	-8	i	1.1	101	·	·	·
CCC(C)N(C(=O)COC(=O)Cc1n[nH]c(=O)c2ccccc12)C1CCS(=O)(=O)C1 (stereo not drawn)	1	i	1.1	97	0.1	·	·
Cc1c(-c2ncn[nH]2)sc(C#N)c1-c1ccccc1	0	i	0.76	107	·	0	135
CCc1ccc2[nH]c(=O)c(CN(Cc3ccc4c(c3)OCO4)C(=O)c3ccco3)cc2c1	2	i	1.1	103	-0.9	-16	116
CCOC(=O)C1CCCN(CC(=O)Nc2c(C(=O)OC)[nH]c3ccccc23)C1 (stereo not drawn)	-4	i	0.91	106	-1.7	24	94
Cc1cc(C(=O)N/N=C/c2cccs2)n[nH]1	-2	i	0.99	98	·	·	·
Cc1cc2nc(C3CCN(Cc4nnnn4Cc4ccccc4)CC3)[nH]c2cc1C	-10	i	1	96	-0.3	30	69
Cc1noc(NS(=O)(=O)c2ccc(NC(=O)CSc3n[nH]c(-c4ccccc4)n3)cc2)c1C	0	i	1	103	-1.7	-155	79
Nc1n[nH]c(S(=O)(=O)CCCc2ccccc2)n1	15	i	0.9	96	-0.1	44	71
O=C(CCc1n[nH]c(=O)[nH]c1=O)N/N=C/c1ccco1	-6	i	0.88	112	·	-27	99
CCCc1[nH]n(-c2ccc([N+](=O)[O-])cc2)c(=O)c1C=NCCN1CCNCC1	1	i	0.99	112	·	·	·
